Sa growth 42C: S. aureus growth inhibition at 42 and 30 °C, primary screen, LtaS inhibitor project, RN4220, two temperatures; OD600, 20 h, 42 °C; hits give low values; relative growth, % (test concentration not listed); actives 0.53% (n = 170,000); AID 720641, 2013;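 active = growth at 42 °C up to 50% and 20 or more points under that at 30 °C, or under 10% at both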;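 note: 300 nL library stock went into each well; scaled to the means of positive and negative controls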
GIV-Gai inh: inhibitors of GIV peptide binding to Galpha-i3, primary screen, biochemical, fluorescence polarization, FITC-GIV GBA peptide, rat Galphai3; Guanine nucleotide-binding protein G(i) subunit alpha-3 (Rattus norvegicus), P08753; 90 min; hits give low values; scaled: aluminum fluoride 0%, vehicle 100%; percent of control (FP), % (no concentration beside the values); actives 0.42% (n = 210,000); AID 1224905, 2016;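 active = replicate mean at 85% of control or lower, very high polarization wells dropped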;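 note: wells of about 15 µL received 100 nL stock; the first replicate is given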
Target sequence (P08753 whole entry, looked up): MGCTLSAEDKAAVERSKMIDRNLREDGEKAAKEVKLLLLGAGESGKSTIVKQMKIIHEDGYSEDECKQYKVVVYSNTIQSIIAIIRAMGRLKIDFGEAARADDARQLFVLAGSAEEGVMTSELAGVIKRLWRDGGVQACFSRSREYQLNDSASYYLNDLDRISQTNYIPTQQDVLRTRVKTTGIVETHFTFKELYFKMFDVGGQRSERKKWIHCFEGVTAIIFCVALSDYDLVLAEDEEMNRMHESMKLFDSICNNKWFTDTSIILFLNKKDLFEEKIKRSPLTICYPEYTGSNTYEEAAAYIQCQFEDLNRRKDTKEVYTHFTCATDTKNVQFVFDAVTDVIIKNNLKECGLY
HCMV UL50-53 inh: inhibitors of HCMV UL50-UL53 interaction, biochemical, HTRF; AID 1918969, 2023; actives 0.15% (n = 190,000); HCMV UL50-UL53 nuclear egress complex (human cytomegalovirus); inhibition, % (test concentration not listed); normalized percent inhibition;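 active = both replicates at 50% or more, plus weaker picks with an unusually low signal ratio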;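 note: stock transfer was 100 nL into about 20 µL; 0% = negative control wells and 100% = wells with untagged competitor protein; inactives centre near -12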
Sa growth 42C second temp: second read-out of Sa growth 42C, no call of its own (marks repeat the call); relative growth, %; measured here: growth at 30 °C;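 optical density after 20 h as mean of two plates; 100% = untreated growth and lower means inhibition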
* hit, by the source's call; nt = no result given; & = joins results of further samples.

SMILES	Sa growth 42C	Sa growth 42C second temp	GIV-Gai inh	HCMV UL50-53 inh
C=CCn1c(N)cc(=O)nc1SCC(=O)NC(C)c1ccccc1 (stereo not given)	111	75	106	-3
CN1C(=O)/C(=C/c2ccccc2)NC1=S	104	99	108	-88
c1ccc2[nH]c(CCCc3nc4ccccc4[nH]3)nc2c1	69	35	nt	17
Cc1ccc(C)c(NC(=O)CSC2=Nc3ccccc3N=C(c3ccc(F)cc3)C2)c1	95	93	103	nt
Cc1nn(CCCC(=O)NCCN2CCCCC2C)c(=O)c2c(-n3cccc3)n(-c3ccccc3)nc12 (stereo not given)	nt	nt	127	-24
CCCCN1C(=O)c2ccc(C(=O)OCC(=O)c3ccc(CNC(C)=O)o3)cc2C1=O	88	92	nt	-76
COc1cccc(CNC(=O)CCc2c(C)c3cc4c(C)coc4c(C)c3oc2=O)c1	101	90	104	-3
CC(C)Nc1cc(N2CCN(Cc3ccc4c(c3)OCO4)CC2)c2noc3c2c1C(=O)c1ccccc1-3	86	69	-31*	-64
Cn1ncc(N)c1C(=O)N1CCOCC1	91	97	101	12
Cn1ccc(-c2ccc(Oc3cccc(Cl)c3C#N)cc2)n1	nt	nt	102	-16
Cc1ccc(-c2cc3c(SCC(=O)NC(C)C)nccn3n2)cc1	nt	nt	101	-18
O=C1C2CCCN2C(=O)N1c1ccc(Br)cc1 (stereo not given)	102	82	102	15
CCCCNS(=O)(=O)c1ccc2nc(-c3cccnc3)cc(C(=O)NCCC)c2c1	92	70	101	nt
Cc1ccc(NC(=O)c2cn3c4c(ccc(Cl)c4c2=O)OC(C)C3)cc1C (stereo not given)	123	102	109	nt
O=C(Nc1ccc2c(c1)OCO2)c1ccc(Br)o1	78	84	nt	-1
CN(C(=O)CSc1ncnc2ccccc12)C1CCCCC1	112	90	nt	-43
CCN(CC)CCNc1nc2nonc2nc1NCCN(CC)CC	nt	nt	101	-28
COc1ccc2c(c1)c(C(=O)CN1CCOCC1)c(C)n2C	nt	nt	97	-10
Cc1cccc(N(Cc2nc3nc(C)cc(=O)n3[nH]2)C(=O)C(C)(C)C)c1	nt	nt	104	16
Cc1cccn2c(=O)c(C(=O)NC(C)c3ccccc3)cnc12 (stereo not given)	81	88	96	nt

Structural class, those above containing sulfur (six)
SMILES	Sa growth 42C	Sa growth 42C second temp	GIV-Gai inh	HCMV UL50-53 inh
C=CCn1c(N)cc(=O)nc1SCC(=O)NC(C)c1ccccc1 (stereo not given)	111	75	106	-3
CN1C(=O)/C(=C/c2ccccc2)NC1=S	104	99	108	-88
Cc1ccc(C)c(NC(=O)CSC2=Nc3ccccc3N=C(c3ccc(F)cc3)C2)c1	95	93	103	nt
Cc1ccc(-c2cc3c(SCC(=O)NC(C)C)nccn3n2)cc1	nt	nt	101	-18
CCCCNS(=O)(=O)c1ccc2nc(-c3cccnc3)cc(C(=O)NCCC)c2c1	92	70	101	nt
CN(C(=O)CSc1ncnc2ccccc12)C1CCCCC1	112	90	nt	-43

Further structures:
SMILES	Sa growth 42C	Sa growth 42C second temp	GIV-Gai inh	HCMV UL50-53 inh
O=c1c(Nc2cccc(F)c2)c(-c2ccccc2)c1=O	nt	nt	104	-25
Cc1ccc(CNCc2cccn2-c2c(C(=O)O)cnn2-c2ccccc2)cc1	nt	nt	106	-30
CC(=O)N1C(=O)C2(C(C#N)=C(N)Oc3cc(C)oc(=O)c32)c2ccccc21 (stereo not given)	80	88	102	-33
CCOc1ccc2cc(C3CC(c4ccccc4)=NN3C(C)=O)c(=O)[nH]c2c1 (stereo not given)	nt	nt	111	14
COc1ccc(C(=O)Nc2ccc3oc(-c4ccc(F)cc4Cl)nc3c2)cc1[N+](=O)[O-]	nt	nt	98	-25
O=C(NCCc1ccccc1)c1ccc2c(c1)N(Cc1ccccc1)C(=O)CS2	98	82	98	nt
c1ccc2[nH]c(Cc3nnc4n3CCCCC4)nc2c1	109	85	nt	-11
O=C(/C=C/c1ccco1)N1CCn2c(nc3ccccc32)C1	83	73	99	nt
Cc1nnc2n(c1=O)C(CS(=O)(=O)c1ccccc1)CS2 (stereo not given)	92	79	103	0
COc1ccc(S(N)(=O)=O)cc1C	110	95	97	-14
O=C(c1ccc2c(c1)OCCO2)N1CCCSC1=Nc1ccccc1	84	99	nt	-3
Nn1cc(-c2ccccc2)nc1SCC(=O)c1ccc(Cl)s1	109	82	nt	-11
CC(C)(C)c1ccc(C(=O)N2CCC(C(=O)NCc3ccco3)CC2)cc1	102	102	107	13
O=C(CN1CCCCCC1=O)OCc1ncc(-c2ccccc2)o1	80	90	nt	-26
CN(CC1CCCO1)S(=O)(=O)c1ccc(C(=O)Nc2nnc(-c3ccccc3)o2)cc1 (stereo not given)	-0.1*	-1.9*	97	-30
CC(C)C(C(=O)O)n1c(O)c(C2=c3cc(Br)ccc3=NC2=O)sc1=S (stereo not given)	nt	nt	102	-16
Cn1cccc1-c1cc2n(n1)CCC(=O)N2CCCC(=O)NCc1ccc(F)cc1	89	85	106	nt
CCOc1ccc(-c2nc(CNC(=O)Nc3cccc(Cl)c3)c(C)o2)cc1	nt	nt	105	-25
CCc1ccc(NC(=O)CCn2c(=O)c3cccn3c3ccccc32)cc1	93	82	103	-16
CC(C)(C)NC(=O)c1cc2c(s1)CCCCC2	100	105	101	20

A second format for some results above.
Compound,Sa growth 42C,Sa growth 42C second temp,GIV-Gai inh,HCMV UL50-53 inh
Nn1cc(-c2ccccc2)nc1SCC(=O)c1ccc(Cl)s1,109,82,nt,-11
CC(C)(C)c1ccc(C(=O)N2CCC(C(=O)NCc3ccco3)CC2)cc1,102,102,107,13
O=C(CN1CCCCCC1=O)OCc1ncc(-c2ccccc2)o1,80,90,nt,-26

Other compounds
SMILES	Sa growth 42C	Sa growth 42C second temp	GIV-Gai inh	HCMV UL50-53 inh
CCc1ccc(-c2nc3ccccn3c2CNCc2ccc(OC)cc2)cc1	nt	nt	101	-22
N#CC(C(=O)c1ccco1)c1ccccn1 (stereo not given)	89	92	nt	0
CCNS(=O)(=O)c1ccc(NC(=O)c2ccc3c(c2)OCO3)cc1	87	81	105	7
Cc1ccc2c(c1)c1c3n2CCN(C(=O)c2cccc(C(F)(F)F)c2)C3CCC1 (stereo not given)	94	91	104	-10
Cc1ccc(C)c(NC(=O)CN(C)C(C)C(=O)N2CC(C)CC(C)C2)c1 (stereo not given)	105	95	nt	-4
COCCn1c(-c2cccc(OC)c2)cnc1NC(=O)NCC1CCCO1 (stereo not given)	nt	nt	103	-18
COc1ccc(S(=O)(=O)N2CCN(c3nc4ccccc4n4cccc34)CC2)cc1	nt	nt	103	-13
O=C(Cn1ccc(C(F)(F)F)n1)Nc1ccc(Cl)cc1	88	81	97	-23
C=CCNCc1nc(-c2cccc(C)c2)no1	99	87	107	-24
CC(C)(C)C(=O)Nc1cccc(-c2nnco2)c1	99	91	99	1
COc1ccc(CC(=O)Nc2nc3c(s2)CC(C)CC3)cc1 (stereo not given)	96	82	102	2
Cc1ccc(N2CC(NC(=O)C3CCCC3)CC2=O)cc1C (stereo not given)	106	85	101	nt
CCc1ccc(OC(=O)/C=C/c2ccco2)cc1	106	102	103	-6
Cc1ccc(CNCCN2CCOCC2)o1	100	95	nt	-6
CCCC1Cc2nc3sc(C(=O)OCC)c(N)c3cc2CO1 (stereo not given)	98	99	103	4
CCOC(=O)C1CCN(C(=O)c2cccc(-c3noc(C)n3)c2)CC1	nt	nt	99	-7
O=C(c1ccc2c(c1)N(Cc1cccc(Cl)c1)C(=O)c1ccccc1S2(=O)=O)N1CCCCC1	111	92	97	nt
CCN(CC)C(=O)Cn1c(=O)n(-c2ccc(C)c(C)c2)c(=O)c2c3c(sc21)CCCCC3	81	92	104	-1
Cc1cc(C)c(C2C(C#N)=C(N)Oc3n[nH]c(C)c32)cc1COc1ccccc1Cl (stereo not given)	127	86	99	nt
CC(C)C(=O)Nc1nc2cc(NC(=O)c3cnccn3)ccc2s1	nt	nt	107	-25
COC(=O)c1ccc(S(N)(=O)=O)o1	75	96	104	-48
CCN1CCN(c2nc3ncn(CC(=O)Nc4ccc(C(C)C)cc4)c(=O)c3s2)CC1	nt	nt	103	7
CCOC(=O)Cn1c(=O)n(-c2ccccc2)c2nc(CC(C)C)nc(C(N)=O)c21	nt	nt	100	6
COc1cccc(OC)c1OC(=O)/C=C/c1ccc(C)o1	101	93	nt	-37
CC(Oc1ccc(I)cc1)C(=O)Nc1ccc(S(N)(=O)=O)cc1 (stereo not given)	103	87	107	0
NC(=O)C1CCN(c2nnnn2-c2ccccc2)CC1	95	88	nt	-25
O=c1oc2ccccc2n1Cc1ccc(C(F)(F)F)cc1	95	100	96	-5
O=c1[nH]c2ccccc2[n+]([O-])c1-c1ccccc1	87	86	nt	-146
N/C(=N\NS(=O)(=O)c1ccccc1)c1ccccn1	100	96	111	0
COc1ncnc2sc3c(c12)CCCC3	nt	nt	103	-17
O=C1CCC(=O)N1CNC1CCCCC1	100	91	106	0
O=C(Nc1ccccc1)C1CCN(C(=O)Nc2ccccc2)CC1	91	84	nt	-15
NC(=O)c1ccccc1OCC(=O)NS(=O)(=O)c1ccc(Cl)cc1	96	91	101	-10
O=C(Nc1cccc(Br)c1)Nc1cc(NC(=O)c2ccccc2)ccc1N1CCCC1	nt	nt	100	-10
CCOc1cc(C=NCCN2Cc3ccccc3C2=O)ccc1O	96	84	nt	-26
CCOC(=O)c1cc(S(=O)(=O)Nc2ccc(S(N)(=O)=O)cc2)c(C)n1C	nt	nt	116	4
Cc1cc(NC(=O)COC(=O)Cc2ccsc2)ccc1Br	88	88	nt	-35
O=C(NC(=S)NC1CCCc2ccccc21)c1ccco1 (stereo not given)	64	57	nt	-26
O=C(c1ccccc1)N(Cc1ccc(Cl)cc1)Cc1ccco1	63	34	101	nt
CCC(=O)N1c2ccccc2CC1C(=O)NCc1ccccc1Cl (stereo not given)	107	88	101	nt
O=C(O)C1=COCCO1	92	81	nt	-21
Cc1cc(C)cc(-n2ccnc2SCC(=O)Nc2nc3ccccc3s2)c1	92	102	101	nt
Nc1ccccc1Sc1ncc(C(F)(F)F)cc1Cl	nt	nt	103	3
O=C(CCC(=O)N1CCN(c2ccc(F)cc2)CC1)c1ccc(Cl)cc1	103	83	111	-28
Cc1ccc2c(c1)C1OCCC1C(c1ccco1)N2 (stereo not given)	93	79	109	nt
CCOC(=O)c1sc2sc(-c3ccn[nH]3)c(C)c2c1C	59	61	105	-7
CCOc1ccc(N2CC(NC(=O)Cc3ccccc3)CC2=O)cc1 (stereo not given)	114	97	102	nt
Cc1ccc(C(=O)Nc2noc3ccccc23)cc1	89	94	101&102	-2&-34
O=C(Nc1ccc(-c2nc3cc(NC(=O)C4CCCCC4)ccc3o2)cc1)C1CCCCC1	107	96	94	nt
N#CCc1nc(CCNc2ccccc2)no1	102	91	nt	-28

Other compounds follow.
SMILES	Sa growth 42C	Sa growth 42C second temp	GIV-Gai inh	HCMV UL50-53 inh
O=C(COC(=O)c1cccc(Cl)c1Cl)Nc1ccc2[nH]c(=O)[nH]c2c1	110	81	nt	-8
CSc1ccc(CNC(=O)Cc2csc3ccccc23)cc1	103	85	105	-15
CCCn1c(SC(C)C(=O)Nc2ccc(C#N)cc2)nc2ccccc21 (stereo not given)	103	88	nt	-11
O=C(Nc1ccccc1F)c1ccc(-n2nc(OCc3cccc(F)c3)ccc2=O)cc1	nt	nt	104	-14
CCC1Cn2c(C(=O)NCCC(C)C)cc3cccc(c32)O1 (stereo not given)	nt	nt	101	-11
CC1Cc2cc(S(=O)(=O)CCC(=O)Nc3ccccc3F)ccc2N1C(=O)C1CC1 (stereo not given)	107	81	102	nt
CCCC(=O)Nc1ccc2c(c1)nc(CN1CCN(C)CC1)n2CC	nt	nt	103	3
CCc1ccc(NC(=O)CSc2nc3nccnc3c(=O)n2Cc2ccc(Cl)cc2)cc1	nt	nt	108	-2
O=C(Cc1ccccc1)OCC(=O)c1cccc(C(F)(F)F)c1	108	94	nt	-21
CC(Oc1ccc(Cl)cc1Cl)C(=O)Nc1ccc(Cl)cn1 (stereo not given)	82	87	102	-2
O=C(NC(C(=O)O)C12CC3CC(CC(C3)C1)C2)c1ccc(F)cc1 (stereo not given)	104	97	104	nt
Cc1cc(NC2CCCCC2)nc(-n2nc(C)cc2C)n1	nt	nt	103	-28
Cc1cc(=O)nc2c3ccccc3n(CC(=O)NCc3ccc(F)cc3)n12	nt	nt	103	8
CC(=O)N1CCCc2cc(S(=O)(=O)N3CCCC(C(=O)Nc4ccc(C)c(C)c4)C3)ccc21 (stereo not given)	88	97	95	nt
O=c1[nH]nc(SCc2ccccc2Cl)n2nc(-c3ccc(F)cc3)cc12	nt	nt	106	-2
CCC(=O)Nc1nc(NC(=O)CC)c2ncn(C(=O)CC)c2n1	100	84	nt	-12
Cc1cccc(NS(=O)(=O)c2ccc(-c3cc(C(F)(F)F)no3)s2)c1	82	71	104	-27
Cc1ccc(C)c(NC(=O)C2CCCN(S(=O)(=O)c3c(C)nn(C)c3C)C2)c1 (stereo not given)	75	91	104	-20
Cc1cc2c(n1-c1ccc(C(=O)NCc3ccccc3Cl)cc1)CCCC2	124	100	106	nt
CCc1nnc(NC(=O)C(=O)c2cc(C)n(-c3ccccc3)c2C)s1	105	69	105	-20
CSc1ccc(CCNC(=O)C(C)n2nc(C)c3sc4ccccc4c3c2=O)cc1 (stereo not given)	97	90	104	0
Cc1ccc(O)c(NC(=O)c2cccnc2Cl)c1	92	91	103	-13
